# VACV Venus inh: inhibitors of vaccinia virus (Venus reporter) | Vaccinia virus Venus reporter expression, fluorescence | Potency, µM (top dose mostly 36.5 µM), without a hit: at the top dose activity change, negative = inhibition, hits mostly inhibitors | 330,000 tested, 0.46% active | AID 720580; active means well fitted inhibition curve with a large enough effect; inconclusive means small, poorly fitted or top-dose-only effect; inactive means no such curve, though single readings can be large or run the other way; tested in A549 cells; further: nearly all actives have a fitted effect of over 30% in size; inactives centre near -10
# VACV mCherry inh: inhibitors of vaccinia virus infection (mCherry reporter signal) | Vaccinia virus mCherry reporter infection, fluorescence; about a quarter of the inactives have no number | Potency, µM (titrated, usually from 36.5 µM), without a hit: at the highest dose activity change, negative = inhibition, hits mostly inhibitors | 310,000 tested, 0.63% active; active = well fitted inhibition curve with a large enough effect; inconclusive = small, poorly fitted or top-dose-only effect; inactive = no such curve, though single readings can be large or run the other way; tested in A549 cells; further: nearly all actives have a fitted effect of over 35% in size; inactives centre near -10
# Numbers without * were called inactive; i = inactive; ? = inconclusive; nt = no result given; [ ] = remark or other dose. On the % scale 0 is the no-effect control and ±100 the full control effect; potency means the concentration at half of the fitted maximal effect.
# Start of the data: the first 4 records, ahead of the listing:
SMILES,VACV Venus inh,VACV mCherry inh
CCC(=O)N1c2ccccc2-c2nnc(SC)nc2OC1c1ccc(N(C)C)cc1 (stereo not given),0.7%,i
N#CC1=C(N)OC2=C(CC/C2=C\c2ccccc2Cl)C1c1ccccc1Cl (stereo not given),?,?
O=C(COC(=O)COc1ccc(Cl)cc1)Nc1ncc(Br)s1,-13.0%,-10.3%
COc1ccc(OC)c(-c2csc(NC(=O)C3c4ccccc4Oc4ccccc43)n2)c1,-16.5%,-12.0%

# The listing, previewed entries included:
SMILES,VACV Venus inh,VACV mCherry inh
CCC(=O)N1c2ccccc2-c2nnc(SC)nc2OC1c1ccc(N(C)C)cc1 (stereo not given),0.7%,i
N#CC1=C(N)OC2=C(CC/C2=C\c2ccccc2Cl)C1c1ccccc1Cl (stereo not given),?,?
O=C(COC(=O)COc1ccc(Cl)cc1)Nc1ncc(Br)s1,-13.0%,-10.3%
COc1ccc(OC)c(-c2csc(NC(=O)C3c4ccccc4Oc4ccccc43)n2)c1,-16.5%,-12.0%
CCN1CCN(C(=O)COc2ccc3c(c2)C(=O)CC2(CCN(C(C)=O)CC2)O3)CC1,-11.1%,-13.8%
Cc1ccc(S(=O)(=O)N2CCN(C(=O)Cn3nc(C)c([N+](=O)[O-])c3C)CC2)c(C)c1,-21.7%,?
COC(=O)c1cn(NC(=O)c2cccc(OC)c2)c(=O)c2ccccc12,-1.0%,-3.1%
COc1ccc(CN2C(=O)C(NC(=O)c3ccc(C)cc3)(C(F)(F)F)N=C2c2ccccc2)cc1 (stereo not given),2.5%,8.0%
Cc1ccc(S(=O)(=O)N2CCN(S(=O)(=O)c3ccccc3Br)C2=O)cc1,?,-35.5%
O=C(O)c1ccc2c(c1)OCCO2,-16.6%,nt
CCc1ccc(S(=O)(=O)c2nnn3c2nc(NCCC(C)C)c2cc(Cl)ccc23)cc1,?,?
CC1CCCC(C)N1/N=C/c1ccccc1F (stereo not given),-5.9%,-22.0%
CCc1ccc(N2CC(C(=O)Nc3cc(C)ccc3F)CC2=O)cc1 (stereo not given),-9.4%,-4.3%
COc1ccc(-c2onc(C)c2C)cc1S(=O)(=O)NCc1ccc(C)o1,-28.1%,-1.4%
COc1ccc(Nc2cc(C)nc(NCc3ccccc3)n2)cc1,-9.1%[7.34 µM],-6.7%[7.34 µM]
OC(c1ccc(F)c(F)c1)c1nc(-c2ccc3c(c2)OCO3)cs1 (stereo not given),3.7%,-10.8%
Cc1ccc(NC(=O)CCC(=O)N2Cc3ccccc3Oc3ncccc32)cc1,-5.6%,-13.4%
COc1cccc(NC(=O)Nc2cc(NC(=O)Nc3cccc(OC)c3)c(C)nc2C)c1,-6.0%,-15.1%
CC(OC(=O)c1ccc2c(c1)OCCO2)C(=O)c1ccccc1 (stereo not given),-9.7%,-5.1%
COc1cccc(C(=O)NCCS(=O)(=O)NCc2cccs2)c1,-12.0%,-13.4%

# 4 records drawn at random from those above, as already listed:
SMILES,VACV Venus inh,VACV mCherry inh
OC(c1ccc(F)c(F)c1)c1nc(-c2ccc3c(c2)OCO3)cs1 (stereo not given),3.7%,-10.8%
Cc1ccc(NC(=O)CCC(=O)N2Cc3ccccc3Oc3ncccc32)cc1,-5.6%,-13.4%
COc1cccc(C(=O)NCCS(=O)(=O)NCc2cccs2)c1,-12.0%,-13.4%
COc1ccc(Nc2cc(C)nc(NCc3ccccc3)n2)cc1,-9.1%[7.34 µM],-6.7%[7.34 µM]

# Next part
SMILES,VACV Venus inh,VACV mCherry inh
Cc1nc(CN(C)C(=O)CC2C(=O)NCCN2Cc2ccc(F)cc2)cs1 (stereo not given),-13.2%,-20.8%
COc1ccccc1NC(=O)c1ccc(C)s1,-6.4%,-3.4%
Cc1cc(C(=O)Nc2sccc2C(N)=O)c(C)o1,12.6%,-0.2%
Cc1ccccc1Nc1nnc(SCC(=O)c2cc3ccccc3o2)s1,3.9%,i
O=C(CCc1ccccc1)Nc1ccccc1F,0.9%,nt
Cc1occc1C(=O)NCc1nc(-c2ccc(Cl)cc2)no1,-3.1%,1.9%
COc1cc(Br)c(CC2c3cc(OC)c(OC)cc3CCN2C)cc1OC (stereo not given),1.0%,i
CCc1ccc(OCc2cccc(C(=O)N/N=C\c3cnn(C)c3C)c2)cc1,-10.0%,-11.7%
CN(Cc1ccccc1)Cc1c[nH]c2ccccc12,-20.6%,-24.2%
Cn1cc(Cl)c(-c2nc3ccccc3[nH]2)n1,11.1%,nt
Cc1ccccc1NC(=O)N1CCC(NC(=O)C2CCCCC2)CC1,-12.4%,-14.6%
Cc1onc(C(=O)/C=C/N(C)C)c1C(=O)Nc1nccs1,-1.7%,nt
Cc1ccc(C)c(NC(=O)c2ccccc2NC(=O)C2CCCO2)c1 (stereo not given),-0.9%,i
Cc1cccc(CCN(CC(=O)NCc2ccc(F)cc2)C(=O)c2csnn2)c1,-23.7%,-2.5%
CCOc1cc(C(=O)Nc2ccc3nc(N4CCN(C)CC4)cc(C)c3c2)cc(OCC)c1OCC,-23.1%,i
Fc1ccccc1NC(=S)Nc1ccc(CN2CCOCC2)cc1,-10.9%,1.1%
CCC(C)N1C(=O)/C(=C\c2ccc(N3CCCCCC3)cc2)C(=O)NC1=S (stereo not given),1.8%,0.2%
CC(C)c1ccc(NC(=S)Nc2cccc3ccccc23)cc1,-7.2%,?
COc1ccc(OC)c(/C=N/c2oc(-c3ccco3)c(-c3ccco3)c2C#N)c1,18.4%,2.9%
COc1ccccc1-c1noc(CSc2nc3ccc(C)cc3[nH]2)n1,-28.2%,?
Cc1ccc(OCC(=O)NNC(=O)C2CCN(c3nc(C)cc(C)n3)CC2)cc1,-1.6%,i
CC(C)(C)c1n[nH]c(=S)n(/N=C/c2cccs2)c1=O,-9.2%,i
C/C(=N\OC(=O)c1cccc(C(F)(F)F)c1)c1sc(-c2ccccc2)nc1C,-8.0%,nt
COC(=O)c1c(NC(=O)CCCOc2ccc(C(C)(C)C)cc2)sc2c1CCC(C)C2 (stereo not given),0.1%,3.1%
Cc1ccc(S(=O)(=O)NCC(=O)OCC(=O)NC(=O)NC2CCCC2)cc1,-3.9%,i
N#Cc1ccccc1S(=O)(=O)N1CCN(C(=O)c2ccc(-n3cncn3)c([N+](=O)[O-])c2)CC1,-15.9%,-14.8%
COc1ccccc1CNS(=O)(=O)c1ccc(-n2cnnn2)c(OC)c1,4.3%,-22.9%
CCn1c(SCC(=O)Nc2cc(C)on2)nc2c(c1=O)SCC2,-14.3%,i
COC(=O)c1cc(NC(=O)CSc2nnc(N)s2)ccc1Cl,-7.2%,?
CCOc1ccc(C(=O)NC(=S)N(Cc2ccccc2)Cc2ccccc2)cc1,-12.4%,-7.6%
N#CCCC1(CCC#N)c2ccccc2C(=O)c2ccccc21,-1.7%,3.9%
CC1Cc2cc(/C(O)=C3\C(=O)C(=O)N(Cc4ccncc4)C3c3ccccc3F)ccc2O1 (stereo not given),-14.3%,-14.7%
Cc1ccc(N(Cc2cc3ccccc3[nH]c2=O)C(=O)c2ccco2)c(C)c1,-14.5%,nt
COc1ccc(C(=O)N/C(=C\c2cn(C)c3ccccc23)C(=O)NCCCN2CCOCC2)cc1OC,-13.5%,-18.4%
COc1ccc(C(=O)Nc2ccc(NC(=O)c3cccs3)cc2)cc1OC,-4.6%,-7.2%
COc1cccc(CC(=O)N2CCC(n3nccc3NC(=O)C3CCOC3)CC2)c1 (stereo not given),-1.4%,-8.9%
COc1cc(C(=O)NC(C(=O)Nc2cccc(C(C)=O)c2)C(C)C)cc(OC)c1OC (stereo not given),-12.9%,-16.2%
Cc1ccc(N(CC(=O)Nc2cc(C)ccc2C)S(C)(=O)=O)cc1,-10.6%,i
CC(=O)c1ccc(NC(=O)CC23CC4CC(C2)CC(n2nnc(C)n2)(C4)C3)cc1,-8.0%,i
C/C(Cl)=C\Cn1c(=O)c2c(nc3n2CCS3)n(C)c1=O,-13.8%,nt
Cc1ccc(C)c(C(=O)n2cnnc2N)c1,-18.4%,-21.7%
CCOC(=O)Cc1csc(NS(=O)(=O)c2ccc(OC)cc2)n1,-10.5%,i
CS(=O)(=O)N(CCc1ccccc1)CC(=O)NCc1ccncc1,-9.2%,-17.0%
CCOc1ccc(NC(=O)CSc2ncc3c(n2)-c2ccccc2N(Cc2ccccc2C)S3(=O)=O)cc1,8.7%,-1.2%
C[N+]1(CC(=O)c2ccc(F)cc2)CCc2ccccc2C1 (stereo not given),-8.1%,i
O=C(O)CCC(=O)Nc1ccc(Cc2ccc(NC(=O)CCC(=O)O)cc2)cc1,-3.5%,-7.6%
CCn1c(=O)c(-c2cc(=O)[nH][nH]2)c(O)c2ccccc21,0.2%,-4.4%
OC(c1ccccc1)c1nc(-c2ccc(Cl)cc2)cs1 (stereo not given),-21.2%,4.0%
Cc1c(C(=O)N2CCOCC2)c(S(=O)(=O)Nc2cccc(F)c2)c(C)n1C,-11.3%,-9.4%
COc1ccc(NC(=O)CNC(=O)c2ccco2)cc1,-9.2%,-2.7%

# Continuation:
SMILES,VACV Venus inh,VACV mCherry inh
CC1CCN(C(=O)C(=O)Nc2sc3c(c2C(N)=O)CC(C)(C)OC3)CC1,4.4%[7.34 µM],-3.3%[7.34 µM]
Nc1nc(SCCO)[nH]c(=O)c1NC(=O)c1ccccc1F,7.1%,0.0%
COC(=O)c1c(C)[nH]c(C(=O)/C=C/c2ccccc2F)c1C,-22.1%,i
CN1CCN(NS(=O)(=O)c2cccs2)CC1,0.0%,i
O=C(CC1CC1)Nc1ccc2c(c1)[C@H]1C[C@H](CC(=O)N3CCc4ccccc4C3)O[C@@H](CO)[C@H]1O2,-13.0%,-4.3%
COc1ccccc1NCCC(=O)OCC(=O)Nc1ccc(Cl)cn1,-11.1%,-18.1%
CN(Cc1cnn(C)c1)Cc1nc(Cc2ccccc2Cl)no1,-9.9%,-2.3%
COc1ccc(CCNC(=O)Cc2c(C)c3c(cc(C)c4c(C)c(C)oc43)oc2=O)cc1,-6.5%,-4.5%
Cn1cnc(S(=O)(=O)Nc2cc(C(F)(F)F)ccc2N2CCOCC2)c1,14.8%,-9.6%
CCCC(C(=O)OCC)P(=O)(c1ccccc1)c1ccccc1 (stereo not given),-5.7%,?
Clc1cccc(Cc2c(C3CCCCC3)nc3ccc(Cl)cn23)c1,6.1%,38.0%[activator]
CCOc1ccc(C2C(C#N)=C(N)Oc3cc(C)oc(=O)c32)cc1 (stereo not given),1.5%,i
N#Cc1ccc(Oc2ccc(S(=O)(=O)N3CCOCC3)cn2)cc1,1.5%,-7.5%
CNC(=O)N(O)C1N(NC(=O)Nc2cccc3ccccc23)C(=S)SC1(C)C (stereo not given),-22.3%,-0.9%
O=C(O)CCn1ccc2cc(S(=O)(=O)N3CCCCC3)ccc21,-3.6%,1.9%
O=[N+]([O-])c1ccc(-c2cnc3ccccc3n2)cc1,-10.8%,-5.7%
CN1CCN(S(=O)(=O)c2ccc(Sc3nnnn3-c3ccccc3)c([N+](=O)[O-])c2)CC1,-4.8%,-13.3%
Cc1nc2scc(-c3ccc(C(C)(C)C)cc3)c2c(=O)n1N,-15.5%,-14.3%
O=c1[nH]c(-c2ccncc2)nc2ccccc12,-8.5%,-16.0%
Cc1nc(N(C)C)ncc1C(=O)O,2.4%,nt
FC(F)Sc1ccc(NC(=S)NC2CCCC2)cc1,-10.2%,-16.2%
Cc1cc(N2CCN(c3nc(-c4ccccc4)cs3)CC2)c2ccccc2n1,-14.0%,-2.9%
CC(=O)NCc1nc2ccccc2n1C(C)C,-12.4%,-20.1%
CC(C)CN1CCN(Cc2ccc(F)cc2Cl)CC1CCO (stereo not given),-21.9%[7.34 µM],-4.9%[7.34 µM]
COc1ccc(NC(=S)N(CCc2ccncc2)C(C)C)cc1Cl,-24.0%,-13.9%
Cc1cccn2cc(-c3ccc(S(=O)(=O)N4CCCCC4)cc3)nc12,-12.4%,-22.0%
CCN(CC)CC#CC(C)OCOCC#CCOC (stereo not given),6.7%,?
CCC(C)NC(=O)Cn1cnc2sc(C)c(S(=O)(=O)N3CCCCC3)c2c1=O (stereo not given),9.2%,-2.9%
CC1CCc2c(C(=O)NCCCN3CCOCC3)csc2C1 (stereo not given),-6.3%,-11.2%
CC(=O)C1=C(OC(=O)C(C)C)c2ccccc2S(=O)(=O)N1Cc1ccccc1,-5.7%,-9.7%
CC(C)Cn1cnc2c1c(=O)n(CC(=O)O)c(=O)n2Cc1ccccc1,11.0%,16.8%
Oc1ccc(-c2csc(-c3cccnc3)n2)c(O)c1,-19.9%,?
Cc1c(C(=O)Nc2ccc(OCc3ccccc3)cc2)cccc1[N+](=O)[O-],-19.3%,?
Cc1cccc2cc(C3CC(c4cccs4)=NN3C(=O)CCC(=O)O)c(Cl)nc12 (stereo not given),2.1%,-4.1%
COc1ccccc1Cn1c(C)c(C(=O)NCCC#N)sc1=O,-4.4%,-7.1%
CC(Cc1ccccc1)NC(N)=O (stereo not given),3.0%,-14.4%
Cc1ccc(C(=O)NC(=S)N2CCN(c3cc(C)ccc3C)CC2)cc1,?,-19.4%
O=C(CN1CCCC1)NCC12CC3CC(CC(C3)C1)C2,-18.3%,-9.1%
CC(=O)c1cccc(NC(=O)N2CCCC2C(=O)NC2CCCC2)c1 (stereo not given),0.7%,-0.6%
COc1ccc(Cl)cc1N(C(C)C(=O)O)S(C)(=O)=O (stereo not given),-12.9%,i
CC(=O)Nc1ccc(-c2cn3ccsc3n2)cc1,-2.8%,-24.2%
CC(=O)C(=Nc1ccccc1Cl)NNc1ccc(Cl)cc1,-13.1%,-15.0%
NC(=O)C1=C[C@H](c2csc3ccccc23)C[C@H](OCc2ccc(CO)cc2)O1,-14.2%,-2.3%
CN1CCN([C@@H]2CS(=O)(=O)N[C@H]2COCc2ccccc2)CC1,-5.9%,13.8%
O=C(Cn1cnc2nc3c(cc2c1=O)CCCC3)N1CCN(c2ccccc2)CC1,-7.1%,-11.3%

# Assay outcomes deposited in PubChem BioAssay by National Center for Advancing Translational Sciences (NCATS).
